ALR inh: blocks human ALR sulfhydryl oxidase activity; P55789; purified ALR, DTT oxidation, H2O2 HRP-luminol luminescence; inhibition, % (test concentration not listed); hit rate 3.8% among 290,000;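 active = mean and each replicate at 75% or more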;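 also: stock transfer was 7.5 nL into about 7.5 µL; 0% = neutral wells and 100% = wells with inactivated enzyme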
LANA-H2B inh: blocks KSHV LANA binding to histone H2A/H2B | Q9QR71 | cell-free LANA-H2A/H2B peptide, fluorescence polarization | inhibition, % (concentration not given with the values) | hit rate 0.6% among 320,000; in the data active = inhibition mostly above about 10%, no sharp cut-off; inactive = mostly below about 6.7%;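 also: stock transfer was 7.5 nL into about 10 µL; 0% = median of vehicle wells and 100% = median of positive control wells; one replicate is shown; the record names a cut of 25% in any replicate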
HNF4A DNA FP: change in binding of human HNF4 alpha to DNA; P41235; HNF4a-FITC DNA binding, fluorescence polarization, 1 h; activity change, % at 10 µM; hit rate 0.3% among 360,000; in the data active = activity change above about 30%, passing the limit was not always enough;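 also: controls were the assay level and a saturating level of protein; the project sought stronger binding though the title names inhibitors; some compounds called inactive have numbers as strong as hits; positive values seem to mean higher polarization but the record does not say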
Target sequence (P41235 whole entry, looked up): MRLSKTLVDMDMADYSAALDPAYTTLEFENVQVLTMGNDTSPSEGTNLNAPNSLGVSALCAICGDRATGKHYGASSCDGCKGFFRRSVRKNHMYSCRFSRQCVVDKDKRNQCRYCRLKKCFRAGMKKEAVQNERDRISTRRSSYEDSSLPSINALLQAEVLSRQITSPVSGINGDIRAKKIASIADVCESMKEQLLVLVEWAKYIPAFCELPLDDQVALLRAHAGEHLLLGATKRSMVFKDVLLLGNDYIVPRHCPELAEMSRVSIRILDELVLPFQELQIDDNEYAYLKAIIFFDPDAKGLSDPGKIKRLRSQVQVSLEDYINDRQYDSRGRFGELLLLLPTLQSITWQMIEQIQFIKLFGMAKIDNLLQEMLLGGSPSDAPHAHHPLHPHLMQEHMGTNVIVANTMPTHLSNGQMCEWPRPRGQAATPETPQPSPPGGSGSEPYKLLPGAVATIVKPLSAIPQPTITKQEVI
Beta2AR agonist: agonists of human beta-2 adrenergic receptor inducing internalization; P07550; Am2.2-beta2AR cells, FAP receptor internalization, flow cytometry; reference of the scale not given here; response, % (concentration not given with the values); hit rate 0.43% among 340,000;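 active = response above a set limit, near 3 SD of response in nonfluorescent compounds, cut at about 42% in these data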;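 also: stock transfer was 100 nL into about 11 µL; a reference agonist was the positive control; negative values mostly stem from fluorescent compounds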
E coli growth: inhibitors of Escherichia coli growth; AID 1053175; OD600 absorbance (concentration not given with the values); OD600, 23 h; hits give low values; hit rate 0.21% among 330,000;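 active = OD600 absorbance below the run mean of sample wells minus 3.6 SD, in any replicate, cut at about 0.56 in these data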;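 also: stock transfer was 300 nL into about 60 µL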
UCH37 DUB inh: blocks the human deubiquitinase UCH37; Q9Y5K5; purified proteasome/UCH37, Ub-AMC cleavage fluorescence; inhibition, % (concentration not given with the values); hit rate 0.33% among 330,000;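 active = mean of two replicates above 20%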;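 also: 0% = compound-free wells with enzyme and 100% = wells lacking proteasome; stock transfer was 100 nL into about 20 µL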
Target sequence (Q9Y5K5 whole entry, looked up): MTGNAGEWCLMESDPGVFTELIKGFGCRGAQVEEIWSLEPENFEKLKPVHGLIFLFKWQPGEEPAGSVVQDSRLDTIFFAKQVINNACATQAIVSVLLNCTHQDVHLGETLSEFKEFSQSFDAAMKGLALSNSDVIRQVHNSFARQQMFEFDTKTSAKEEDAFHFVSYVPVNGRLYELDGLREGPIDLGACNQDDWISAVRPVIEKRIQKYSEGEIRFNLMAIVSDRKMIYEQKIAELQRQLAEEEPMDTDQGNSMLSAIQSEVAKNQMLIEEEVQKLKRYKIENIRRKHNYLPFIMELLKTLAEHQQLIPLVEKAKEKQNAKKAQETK
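Material: Human UCH37 enzyme supplied as purified proteasome complex | Schedule: 30 min preincubation with enzyme, 25 min cleavage at room temperature | Detection: AMC fluorescence 355/460 nm | Measure: % inhibition of Ub-AMC cleavage fluorescence | Controls: Wells without proteasome as full block, compound-free enzyme plus substrate as uninhibited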
FGF22 binding: binders of recombinant human FGF22 by thermal shift | hit rate 1.5% among 340,000 | AID 651658 | calls only at 9.99 µM | SYPRO orange fluorescence; percent of sucrose octasulfate shift, DMSO zero | Q9HCT0;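 active = melting point raised past a set limit in the mean and every replicate; three in four hits are not shown here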
Target sequence (Q9HCT0 whole entry, looked up): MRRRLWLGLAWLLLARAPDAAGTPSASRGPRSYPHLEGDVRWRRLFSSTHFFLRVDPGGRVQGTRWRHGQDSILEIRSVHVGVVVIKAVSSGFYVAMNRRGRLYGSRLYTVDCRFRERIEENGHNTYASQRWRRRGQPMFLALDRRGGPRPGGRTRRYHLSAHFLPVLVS
* = called active by the depositor; i = inactive; . = not tested or not shown. These rows are one share of the data, so the mix of outcomes need not match the whole.

SMILES | ALR inh | LANA-H2B inh | HNF4A DNA FP | Beta2AR agonist | E coli growth | UCH37 DUB inh | FGF22 binding
O=C1COc2ccc(S(=O)(=O)N3CCN(c4cccc(Cl)c4)CC3)cc2N1 | 0 | -2.0 | -1.3 | 4 | 0.7 | 2.2 | i
COc1cccc(Nc2nnc(SCC3CCCCO3)s2)c1 (centres undefined) | -3 | -2.5 | 0.1 | -1 | 0.71 | 0.8 | i
CCC1CCC(NC(=O)Nc2cccc(OC)c2)CC1 (centres undefined) | -2 | 0.6 | -3.1 | 7 | 0.65 | 0.8 | .
O=c1oc2ccccc2c(O)c1C=Nc1cccnc1 | . | 3.0 | -8.4 | 3 | 0.74 | 0.0 | i
Nn1cnc2c([nH]c3ccccc32)c1=O | -2 | 0.5 | 2.5 | 1 | 0.73 | 1.9 | i
COc1cccc(-c2cc(C(=O)NC3CCCCC3)no2)c1 | -5 | 1.9 | -1.1 | -3 | 0.67 | 1.8 | i
COc1cccc(NC(=O)N(Cc2cc3cc(C)cc(C)c3[nH]c2=O)CC2COCCO2)c1 (centres undefined) | . | -2.0 | 1.5 | 8 | 0.7 | 1.3 | .
Cc1ccc(S(=O)(=O)N2CCCCC2)cc1C(=O)N(C)CC(=O)Nc1ccc(Cl)c(C(F)(F)F)c1 | 4 | -8.4 | -1.1 | -2 | 0.7 | 3.5 | i
Cc1ccccc1SCC(=O)NCCCn1ccnc1 | . | 11 | 3.6 | 0 | 0.65 | 1.1 | i
CCCCCCC1CCC(c2nc(-c3ccncc3)no2)CC1 (centres undefined) | -13 | -0.6 | -0.9 | 6 | 0.66 | 3.2 | .
COc1ccc(NC(=O)N(CCCN(C)C)Cc2cc3cc(OC)ccc3[nH]c2=O)cc1 | -13 | 2.1 | 0.0 | -1 | 0.7 | -25 | .
COc1ccc(Cn2c(=O)n(Cc3ccco3)c(=N)c3c4c(sc32)COC(C)(C)C4)cc1 | -2 | -1.5 | -0.3 | -9 | 0.76 | -2.4 | .
Cc1c(NC(=O)COC(=O)C2CC3C=CC2C3)c(=O)n(-c2ccccc2)n1C (centres undefined) | -1 | -8.2 | 1.4 | 10 | 0.71 | 1.6 | .
CC(=O)N1CCN(c2ccccc2NC(=O)c2ccc3ccccc3c2)CC1 | 9 | 2.5 | 3.5 | 1 | 0.7 | 1.5 | i
O=C(CN(Cc1ccco1)C(=O)c1cc(=O)[nH]c2ccccc12)Nc1ccccc1Br | -7 | 0.0 | -1.0 | 3 | 0.69 | -0.7 | .

Retrieved one by one from the entries so far, two records:
SMILES | ALR inh | LANA-H2B inh | HNF4A DNA FP | Beta2AR agonist | E coli growth | UCH37 DUB inh | FGF22 binding
O=C(CN(Cc1ccco1)C(=O)c1cc(=O)[nH]c2ccccc12)Nc1ccccc1Br | -7 | 0.0 | -1.0 | 3 | 0.69 | -0.7 | .
COc1cccc(NC(=O)N(Cc2cc3cc(C)cc(C)c3[nH]c2=O)CC2COCCO2)c1 (centres undefined) | . | -2.0 | 1.5 | 8 | 0.7 | 1.3 | .

3 compounds out of the list above, arranged by the value under LANA-H2B inh, low to high:
SMILES	ALR inh	LANA-H2B inh	HNF4A DNA FP	Beta2AR agonist	E coli growth	UCH37 DUB inh	FGF22 binding
COc1cccc(Nc2nnc(SCC3CCCCO3)s2)c1 (centres undefined)	-3	-2.5	0.1	-1	0.71	0.8	i
COc1cccc(-c2cc(C(=O)NC3CCCCC3)no2)c1	-5	1.9	-1.1	-3	0.67	1.8	i
O=c1oc2ccccc2c(O)c1C=Nc1cccnc1	.	3.0	-8.4	3	0.74	0.0	i

(continued)
SMILES | ALR inh | LANA-H2B inh | HNF4A DNA FP | Beta2AR agonist | E coli growth | UCH37 DUB inh | FGF22 binding
O=C(N/N=C/c1ccco1)c1ccc(N2CCCC2=O)cc1 | 1 | -4.8 | -1.7 | -11 | . | . | .
CC[n+]1c(/C=C2\Sc3ccccc3N2C)ccc2cccc(C)c21 | . | . | 156* | . | 0.33* | 24* | i
Cc1ccc(-n2c(C)cc(/C=N/NC(=O)c3ccncc3)c2C)c(C)c1 | 46 | 2.9 | 0.0 | 1 | . | . | .
O=C(CCCc1cccs1)N1CCN(S(=O)(=O)c2ccccc2Br)CC1 | -36 | -0.2 | 0.7 | 2 | 0.73 | 1.0 | .
Cc1[nH]c2ccc(-c3nnc(SCC(=O)NCc4ccco4)n3Cc3ccccc3)cc2c1C | -5 | -3.8 | 0.8 | 2 | 0.73 | -1.3 | .
CN(C)c1ccc(C(=O)/C=C/c2ccco2)cc1 | -6 | 3.9 | 0.1 | -4 | 0.73 | 12 | .
CCOC(=O)N1CCN(C(=O)CSc2ccc(-c3ccncc3)nn2)CC1 | -1 | -3.4 | -3.9 | 0 | 0.7 | 4.1 | i
CC(C)NS(=O)(=O)c1ccc(CCC(=O)N2CCc3ccccc3C2)cc1 | -3 | 0.8 | -0.5 | -6 | 0.68 | 2.9 | i
COc1cccc(CN2CCN(Cc3cccn3-c3cccnc3)CC2CCO)c1 (centres undefined) | . | 1.1 | -3.4 | 2 | 0.68 | -1.4 | i
COC(=O)c1c(NC(=O)CSc2ncnc3[nH]ncc23)sc2c1CCC2 | 18 | 0.8 | 2.1 | 2 | 0.68 | 4.6 | i
O=C(NC(=S)Nc1ccc(Cc2ccncc2)cc1)c1ccc(F)cc1 | . | -5.2 | -0.3 | -18 | 0.69 | 2.5 | i
CC(=O)OCc1cc(-c2nn(C)c(=O)c3ccccc23)ccc1C | . | 0.6 | -2.2 | 5 | 0.73 | 2.9 | i
CCN(C(C)=O)c1ccc(Oc2nc(OC)cc(OC)n2)cc1 | -13 | 2.3 | 3.0 | 3 | 0.66 | 1.6 | i
Cc1cc(SCc2ccccc2)nc(=O)[nH]1 | -1 | -1.1 | -0.4 | 3 | 0.67 | 2.7 | .
COc1cc(C(=O)Nc2cc(Cl)ccc2C)c(-n2cnnn2)cc1OC | 0 | 2.0 | 1.0 | -5 | 0.71 | 0.2 | .

Single records (already shown):
Listed for Cc1ccc(-n2c(C)cc(/C=N/NC(=O)c3ccncc3)c2C)c(C)c1 : ALR inh: 46; LANA-H2B inh: 2.9; HNF4A DNA FP: 0.0; Beta2AR agonist: 1; E coli growth: .; UCH37 DUB inh: .; FGF22 binding: .
Listed for COc1cc(C(=O)Nc2cc(Cl)ccc2C)c(-n2cnnn2)cc1OC : ALR inh: 0; LANA-H2B inh: 2.0; HNF4A DNA FP: 1.0; Beta2AR agonist: -5; E coli growth: 0.71; UCH37 DUB inh: 0.2; FGF22 binding: .

(list continues)
SMILES | ALR inh | LANA-H2B inh | HNF4A DNA FP | Beta2AR agonist | E coli growth | UCH37 DUB inh | FGF22 binding
CCc1cc(C(=O)OC)c(NC(=O)CC2Nc3cc(C)c(C)cc3NC2=O)s1 (centres undefined) | -1 | -0.7 | 61* | 10 | 0.69 | 2.0 | i
CCCOc1ccc(C(=O)CCN2CCN(C(=O)OCC)CC2)cc1 | . | . | -1.1 | -1 | 0.68 | 6.8 | i
C=CCn1c2ccccc2c2nnc(SCCCn3c(=O)[nH]c4ccccc43)nc21 | . | . | -1.7 | 8 | 0.75 | 4.2 | .
CCn1c(SCc2nc(-c3ccccc3)no2)nc2ccccc21 | 0 | 0.2 | -1.9 | 14 | 0.73 | 5.8 | i
CC(C)(C)C(=O)NC(CC(=O)O)c1ccccc1 (centres undefined) | 0 | 1.2 | -1.4 | 10 | 0.69 | 0.9 | i
Cc1ccc(OCCCC(=O)Nc2nnc(C3CCCO3)s2)c(C)c1 (centres undefined) | 1 | -1.7 | 2.9 | 1 | 0.74 | -1.2 | i
Cc1ccc(NC(=O)C2C3C=CC4(O3)C2C(=O)N(CCCN2CCOCC2)C4C(=O)NC2CCCCC2)cc1Cl (centres undefined) | -1 | -3.6 | 1.8 | -2 | 0.67 | 4.9 | i
Cc1ccc(S(=O)(=O)NCC(=O)OCC(=O)N2N=C(c3ccc(Cl)cc3)CC2c2ccco2)cc1C (centres undefined) | 16 | 4.7 | 2.5 | -5 | 0.7 | 1.9 | .
CC(CN1CCCCC1)OC(=O)Cc1ccc(Cl)cc1 (centres undefined) | -2 | 0.7 | -2.9 | 3 | 0.72 | -0.2 | .
O=C(COC(=O)C1CC(=O)N(Cc2ccccc2)C1)Nc1cccc([N+](=O)[O-])c1 (centres undefined) | 40 | -1.1 | -29 | 0 | 0.68 | -3.6 | i
CCOc1ccc(C(=O)N2CCN(c3cccc(C)c3C)CC2)cc1 | -16 | 4.9 | -0.6 | 5 | 0.64 | 1.7 | .
COc1ccc(-n2c(=O)c(CCC(=O)N(C)Cc3ccccc3C)nc3ccccc32)cc1 | -10 | -8.3 | 4.8 | -3 | 0.63 | 1.7 | i
Cc1cccc(Nc2nnc(SCC(=O)Nc3cccc(S(=O)(=O)N4CCCCC4)c3)s2)c1 | . | 1.5 | 1.9 | -3 | 0.75 | 1.0 | .
Cc1ccc(C(=O)N2CCN(S(=O)(=O)c3ccc(C)cc3)CC2)cc1 | 4 | -7.1 | -0.6 | -3 | 0.65 | 4.3 | i
O=S(=O)(/N=C(/Nc1cccc2ccccc12)c1ccccc1)c1ccccc1 | -4 | 0.9 | -1.9 | -9 | 0.64 | -1.7 | i
O=C(COC(=O)COc1ccccc1)Nc1ccccc1OC(F)F | 0 | 3.4 | -0.1 | 5 | 0.71 | 1.6 | .
O=C(OCc1ccccn1)c1ccc(COc2ccccc2Cl)o1 | -8 | -5.8 | -2.1 | 14 | 0.72 | 2.4 | .
O=C(NCCS(=O)(=O)N1CCN(c2ccccc2)CC1)C1CC(=O)N(c2ccc(F)cc2)C1 (centres undefined) | 0 | 1.2 | -2.8 | -5 | 0.71 | 0.0 | i
NS(=O)(=O)c1ccc(-n2ncc3c(=O)[nH]c(SCC(=O)Nc4nccs4)nc32)cc1 | . | -1.4 | 6.3 | 2 | 0.69 | 1.0 | i
C=CCn1c(SCC(=O)NC2CCS(=O)(=O)C2)nc2sc(CC)cc2c1=O (centres undefined) | 5 | 11 | 4.7 | -2 | 0.7 | 1.2 | .
O=[N+]([O-])c1ccc(NC(=S)NCC(c2cccnc2)N2CCOCC2)cc1 (centres undefined) | -4 | -4.9 | -1.6 | 0 | 0.68 | 7.4 | i
CCc1nn(C(C)C(=O)NCc2cccc(Cl)c2)c(=O)c2cc3occc3n12 (centres undefined) | 1 | 3.6 | 3.2 | 4 | 0.69 | 0.9 | i
COc1ccc(/C=N/NC(=O)c2ccncc2)cc1COc1ccc(NC(C)=O)cc1 | -5 | 0.2 | . | . | . | . | i
CSCCC(NS(=O)(=O)c1cccs1)C(=O)NCc1ccc(C)cc1 (centres undefined) | -22 | 0.2 | 2.5 | 0 | 0.65 | -0.3 | i
CCn1c(/C=C/c2ccc([N+](=O)[O-])o2)nc2ccccc2c1=O | -11 | 6.9 | 92* | -114 | 0.63 | 9.3 | .
CCN(CC)C(=O)N1CCc2ccccc21 | -5 | 1.7 | -0.2 | 5 | 0.7 | 3.0 | .
Clc1ccc(OCc2nn3c(-c4ccco4)nnc3s2)cc1 | . | 0.5 | 3.5 | -2 | 0.76 | 1.4 | .
Cc1cc(-c2ccc(C(C)C)c(S(=O)(=O)N3CCC(C)CC3)c2)on1 | 1 | -4.4 | -2.4 | 1 | 0.72 | 0.6 | i
COc1cc(OC)cc(C(=O)NNS(=O)(=O)c2ccc(F)cc2)c1 | . | 4.0 | -1.8 | 7 | 0.65 | 1.7 | i
O=C(Cc1ccc(Cl)cc1)Nc1cc(Cl)ccn1 | -3 | 6.3 | 4.7 | -14 | 0.66 | 2.1 | i

Source: PubChem BioAssay
